SARS PLpro yeast – SARS-CoV PLP inhibition in yeast | S. cerevisiae expressing SARS-CoV PLpro, growth rescue; control for the full effect not named in the record | AID 485353 | actives 0.19% (n = 330,000) | Potency, µM (highest dose often 32.9 µM), inactives show at the top dose activity, positive = growth rescue; active means well fitted rising curve with a large enough effect; inconclusive means small, poorly fitted or top-dose-only effect; inactive means no such curve, though single readings can be large or run the other way; further: 0% is about no effect; nearly all actives have a fitted effect of over 55% in size; growth read by luminescence after 48 h
Cruzain inh noDet – blocks cruzain activity in detergent-free assay | actives 2.3% (n = 200,000) | P25779 | purified cruzain, Z-FR-AMC fluorescence, no detergent | AID 1476 | Potency, µM, inactives show max response, negative = inhibition, usual class: inhibitors;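 further: plate controls were enzyme without inhibitor for no effect and buffer without enzyme for full effect; nearly all actives have a fitted effect of over 40% in size; top concentration of the series not given in the record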
Target sequence (P25779 123-467 limits assumed): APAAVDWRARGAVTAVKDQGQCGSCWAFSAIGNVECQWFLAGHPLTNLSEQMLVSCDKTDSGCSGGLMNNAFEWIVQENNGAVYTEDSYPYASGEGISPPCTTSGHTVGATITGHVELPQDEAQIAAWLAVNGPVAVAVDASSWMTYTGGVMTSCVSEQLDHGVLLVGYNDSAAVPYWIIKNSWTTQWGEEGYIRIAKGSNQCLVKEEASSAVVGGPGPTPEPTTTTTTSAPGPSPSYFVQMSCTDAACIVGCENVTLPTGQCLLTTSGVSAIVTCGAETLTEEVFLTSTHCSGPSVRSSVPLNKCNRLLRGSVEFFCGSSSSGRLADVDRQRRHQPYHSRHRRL
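Detergent-free condition (0.00005% Triton X-100) in acetate buffer pH 5.5 with DTT. 1.5 nM enzyme and compound were pre-mixed 15 min, then 2 uM Z-FR-AMC substrate added; reaction progress from fluorescence change between first and third reads (60 s).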
Lassa entry inh – blocks Lassa virus binding to or entry into cells; Lassa virus pseudotype entry inhibition, cell reporter; control for the full effect not named in the record; Potency, µM (series often up to 37.9 µM), inactives show at the highest dose activity change, negative = inhibition, hits mostly inhibitors; actives 1.2% (n = 300,000); AID 540256; active means well fitted inhibition curve with a large enough effect; inconclusive means small, poorly fitted or top-dose-only effect, or effect the other way; inactive means flat fitted curve, though single readings scatter; tested in HEK293 cells; further: on the % scale 0 is the no-effect control and ±100 the full control effect; nearly all actives have a fitted effect of over 50% in size; luciferase read-out
Cruzain Triton – cruzain (T. cruzi) inhibition with detergent; actives 0.43% (n = 200,000); purified cruzain, Z-FR-AMC fluorescence, 0.01% Triton; Potency, µM, for inactives: max response, negative = inhibition, hits mostly inhibitors; AID 1478;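 further: plate controls were neutral wells for no effect and buffer without enzyme for full effect; nearly all actives have a fitted effect of over 40% in size; top concentration of the series not given in the record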
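Read-out: AMC fluorescence (360 nm excitation, 450 nm emission), four reads over 2 min, first-to-third difference used. Conditions: cruzain 1.5 nM, Z-FR-AMC 2 uM, pH 5.5 acetate, 5 mM DTT, 0.01% Triton X-100.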
Marburg entry inh – blocks Marburg virus binding to or entry into cells | Potency, µM (highest dose often 37.8 µM), for inactives: top-dose activity change, negative = inhibition, hits mostly inhibitors | actives 1.8% (n = 300,000) | Marburg virus pseudotyped entry inhibition, cell reporter; control for the full effect not named in the record; about a third of the inactives were read at about 46 µM | AID 540276; active = well fitted inhibition curve with a large enough effect; inconclusive = small, poorly fitted or top-dose-only effect, or effect the other way; inactive = flat fitted curve, though single readings scatter; tested in HEK293 cells; about a fifth of its hits are not listed in these tables; further: on the % scale 0 is the no-effect control and ±100 the full control effect; luciferase read-out
NS1 inh – inhibitors of influenza NS1 protein function; S. cerevisiae slowed by influenza A NS1, growth recovery by OD600; Potency, µM (top dose mostly 46.1 µM), for inactives: at the highest dose activity, positive = more growth; actives 0.4% (n = 270,000); active means well fitted rising curve with a large enough effect; inconclusive means small, poorly fitted or top-dose-only effect; inactive means no such curve, though single readings can be large or run the other way; further: nearly all actives have a fitted effect of over 50% in size
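OD600 was taken as the measure of yeast growth restored by compound in an NS1-expressing S. cerevisiae strain. Cells had been washed out of glucose medium and diluted 1:100 into galactose -URA medium, pH 6.0.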
RE007 growth inh – less growth of the S. pombe RE007 Vpr strain | AID 651644 | Potency, µM (highest dose often 92.2 µM), without a hit: top-dose activity change, negative = less growth | actives 0.21% (n = 360,000) | S. pombe RE007 Vpr strain, BacTiter-Glo ATP luminescence, 24 h; control for the full effect not named in the record; active = well fitted falling curve with a large enough effect; inconclusive = small, poorly fitted or top-dose-only effect; inactive = no such curve, though single readings can be large or run the other way;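 further: on the % scale 0 is the no-effect control and ±100 the full control effect; nearly all actives have a fitted effect of over 50% in size; the assay follows cell death caused by Vpr and the record does not say whether a fall means rescue or toxicity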
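Fission yeast RE007 carrying one integrated HIV-1 vpr copy, seeded at OD 0.01 in PMG+AL medium with 23 nL pinned compound. Grown 24 h at 30 degrees; viability read by BacTiter-Glo luminescence after 5 min.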
2A StopGo – FMDV 2A StopGo reporter, luciferase signal | human cells with a luciferase reporter of 2A StopGo recoding; control for the full effect not named in the record | actives 1.2% (n = 410,000) | AID 1159524 | Potency, µM (titrated, usually from 57.9 µM), for inactives: top-dose signal change, negative = less light; active = well fitted falling curve with a large enough effect; inconclusive = small, poorly fitted or top-dose-only effect; inactive = no such curve, though single readings can be large or run the other way; tested in HEK293T cells; further: on the % scale 0 is the no-effect control and ±100 the full control effect; nearly all actives have a fitted effect of over 45% in size; luciferase light after 4 h
An asterisk follows results filed as active; ? = inconclusive; nt = not tested or not shown; & = joins results of further samples; [ ] = dose if it differs, or a comment. Unless noted, the call rests on the fitted dose curve; in most records, active means well fitted curve in the direction sought with a large enough effect; inconclusive means small, poorly fitted or top-dose-only effect, or another doubt; inactive means no such curve, though single readings can be large; an effect the other way counts as inactive or inconclusive. Potency means the concentration at half of the fitted maximal effect. Random draw from the library; overall some 4.7% were active at least once.

SMILES	SARS PLpro yeast	Cruzain inh noDet	Lassa entry inh	Cruzain Triton	Marburg entry inh	NS1 inh	RE007 growth inh	2A StopGo
CC1CCN(c2nc(/C=C/c3ccccc3)nc3ccccc23)CC1	-85.9%	-6.0%	?	-12.7%	?	-26.9%	?	0.5%
CCSC1=NCCN1C(=O)c1c(-c2ccccc2Cl)noc1C	0.2%	nt	-13.5%	nt	?	2.0%	-21.7%	-18.7%
CCCNC(=O)c1ccccc1NC(=O)c1nsc2ccccc12	nt	7.7%	14.5%[46.1 µM]	1.1%	nt	nt	nt	0.0%
Cc1ccc(C(=O)N/N=C/c2sc(=O)n(Cc3cccc(C(=O)O)c3)c2Cl)cc1	1.4%	-20.0%	8.0%	-3.8%	4.7%	2.7%	9.9%	8.6%
COc1ccccc1/C=C/C=N/NC(=O)c1ccco1	-1.6%	nt	13.5%[46.1 µM]	nt	0.5%[46.1 µM]	-8.8%	-3.6%	27.6%
CCOc1ccc2c(c1)c(C(C)=O)c(C)n2Cc1ccco1	5.0%	nt	-10.7%[46.1 µM]	nt	-14.0%[46.1 µM]	2.5%	-0.7%	-21.4%
O=C(Nc1nnc(SCCC2OCCO2)s1)C1CC(=O)N(c2ccccc2)C1 (stereo not given)	-2.3%	nt	7.1%	nt	1.5%	17.2%	-9.3%	-4.6%
O=C(c1ccco1)N1CCN(Cc2nc(Cc3ccccc3)no2)CC1	1.1%	nt	-12.9%	nt	-11.1%[46.1 µM]	-0.8%	10.9%	-15.8%
Cc1csc(NC(=O)C2CCCN2C(=O)Oc2ccccc2)n1 (stereo not given)	11.8%	-4.1%	6.5%	3.2%	16.3%	6.1%	-4.7%	-0.6%
Cc1nn2cnc3sc4c(c3c2nc1=O)CCCC4	-15.4%	1.2%	0.9%	-4.7%	21.5%	-7.7%	16.3%	-22.0%
Cc1nc(-c2ccc(S(=O)(=O)Nc3ccc(Br)cc3Cl)s2)cs1	-17.3%	nt	0.0%	nt	12.0%	-68.6%	8.3%	10.3%
Cc1ccc(C2SCC(C(=O)O)N2C(=O)c2ccc(F)cc2)cc1 (stereo not given)	9.8%	-3.9%	8.0%	-0.8%	0.5%	0.5%	4.2%	-7.6%
O=C(COc1ccccc1)Nc1nc(-c2cccs2)cs1	3.8%	-6.7%	?	-7.9%	-9.6%	-10.8%	-16.9%	-5.3%
CCOC(=O)c1c[nH]c2ccc([N+](=O)[O-])cc12	nt	nt	0.0%[46.1 µM]	nt	0.0%[46.1 µM]	nt	-6.2%	21.2%
COc1ccc2oc(C(=O)OCC(=O)Nc3cccc(S(=O)(=O)N4CCOCC4)c3)c(C)c2c1	-2.8%	nt	-6.7%	nt	-2.9%[46.1 µM]	nt	-3.2%	-14.0%
CCCCn1ccnc1C(=O)c1cccc(S(=O)(=O)N2CC(C)CC(C)C2)c1 (stereo not given)	8.3%	13.3%	-13.0%	-1.5%	-29.9%	0.5%	0.9%	8.7%
Cc1ccc(OC(=O)c2ccc(Cl)c([N+](=O)[O-])c2)cn1	-0.8%	nt	nt	nt	nt	-33.4%	-8.4%	-17.7%
O=C(CN1CCc2cc3c(cc2C1)OCCCO3)Nc1ccc(S(=O)(=O)N2CCCC2)cc1	9.8%	nt	?	nt	?	-1.0%	-1.5%	-3.1%
CCc1ccc(NC(=O)c2sc3nc(C)c(Cl)c(C)c3c2N)cc1	nt	-26.7%	23.2%[46.1 µM]	-4.2%	?	nt	nt	32.0%[activator]
CCc1c(-c2ccccc2)nc(N)c(C#N)c1-c1cccs1	-6.0%	0.4%	-16.2%	-7.5%	?	-18.4%	1.4%	?
Cc1nnsc1S(=O)(=O)Cc1ccccc1C(F)(F)F	-2.5%	nt	?	nt	1.0%[46.1 µM]	nt	-17.1%	12.3%
CN(C)c1ccc(CN(Cc2ccco2)C(=O)c2ccc(F)cc2)cc1	nt	-10.8%	?	-7.4%	?	nt	nt	-17.0%
COc1ccc(NC(=O)NC(C(F)(F)F)C(F)(F)F)cc1	-5.5%	-11.6%	-11.9%	-0.8%	6.8%	-17.7%	-7.6%	-1.1%
COc1ccc(S(=O)(=O)NNC(N)=S)cc1	2.3%	nt	-22.2%	nt	4.2%[46.1 µM]	nt	5.3%	-2.2%

5 entries picked at random from those above, as already listed:
SMILES	SARS PLpro yeast	Cruzain inh noDet	Lassa entry inh	Cruzain Triton	Marburg entry inh	NS1 inh	RE007 growth inh	2A StopGo
CN(C)c1ccc(CN(Cc2ccco2)C(=O)c2ccc(F)cc2)cc1	nt	-10.8%	?	-7.4%	?	nt	nt	-17.0%
O=C(CN1CCc2cc3c(cc2C1)OCCCO3)Nc1ccc(S(=O)(=O)N2CCCC2)cc1	9.8%	nt	?	nt	?	-1.0%	-1.5%	-3.1%
CCc1c(-c2ccccc2)nc(N)c(C#N)c1-c1cccs1	-6.0%	0.4%	-16.2%	-7.5%	?	-18.4%	1.4%	?
O=C(COc1ccccc1)Nc1nc(-c2cccs2)cs1	3.8%	-6.7%	?	-7.9%	-9.6%	-10.8%	-16.9%	-5.3%
CCCCn1ccnc1C(=O)c1cccc(S(=O)(=O)N2CC(C)CC(C)C2)c1 (stereo not given)	8.3%	13.3%	-13.0%	-1.5%	-29.9%	0.5%	0.9%	8.7%

(further entries)
SMILES	SARS PLpro yeast	Cruzain inh noDet	Lassa entry inh	Cruzain Triton	Marburg entry inh	NS1 inh	RE007 growth inh	2A StopGo
COC(=O)CCN(C)CCC(=O)OC	1.2%	-14.9%	5.1%	1.0%	11.2%	-4.9%	-0.7%	-10.8%
CCc1ccc(NC(=O)Cn2ccn(Cc3ccccc3OC)c(=O)c2=O)cc1	nt	4.6%	-20.1%[46.1 µM]	-0.6%	nt	nt	nt	14.5%
O=c1cc(Nc2ccc3c(c2)OCCO3)[nH]c(=O)n1Cc1ccc(F)cc1	12.7%	?	9.8%	-7.0%	7.9%	0.4%	4.1%	nt
NCC(=O)c1ccccc1	nt	-3.8%	nt	0.8%	nt	nt	-18.9%	-10.3%&41.6%
COc1ccc(-n2ncc(C(=O)N3CCN(c4cc(C)ccc4C)CC3)c2C2CCN(C(=O)OC(C)(C)C)CC2)cc1	nt	-26.7%	?	-1.5%	nt	nt	nt	-13.4%
Cc1c(-c2cc(C(=O)O)on2)cnn1C	-0.9%	nt	6.0%[46.1 µM]	nt	4.3%[46.1 µM]	nt	-14.7%	-5.9%
Cc1ccc(C)c(Cn2c(=O)n(-c3ccccc3)c(=O)c3c4c(sc32)CCCC4)c1	nt	1.8%	?	3.4%	-2.4%[46.1 µM]	nt	nt	7.5%
CCn1nnnc1NCc1ccc(SC)cc1	0.8%	nt	nt	nt	nt	8.4%	2.5%	-1.4%
COc1ccc(C(CC(=O)Nc2ccccn2)N2Cc3ccccc3C2=O)cc1OC (stereo not given)	0.3%	10.1%	5.0%[46.1 µM]	-1.3%	nt	0.8%	-8.4%	3.9%&4.2%
O=C(Nc1ccc(-c2ccc(N3CCCCC3)nn2)cc1)c1ccco1	-6.5%	nt	-20.9%	nt	?	nt	?	36.0%[activator]
Cc1ccc(C)c2[nH]c(=O)c(CCNC(=O)CC(C)C)cc12	0.0%	2.4%	nt	-2.0%	nt	-8.1%	11.4%	-8.4%

For reference, two of the compounds above:
SMILES	SARS PLpro yeast	Cruzain inh noDet	Lassa entry inh	Cruzain Triton	Marburg entry inh	NS1 inh	RE007 growth inh	2A StopGo
O=c1cc(Nc2ccc3c(c2)OCCO3)[nH]c(=O)n1Cc1ccc(F)cc1	12.7%	?	9.8%	-7.0%	7.9%	0.4%	4.1%	nt
NCC(=O)c1ccccc1	nt	-3.8%	nt	0.8%	nt	nt	-18.9%	-10.3%&41.6%

Screening data from PubChem BioAssay.
